Screens from PubChem.
LANA-H2A inh: blocks KSHV LANA binding to histone H2A/H2B. cell-free LANA-H2A/H2B peptide, fluorescence polarization. inhibition, % (concentration not given with the values). 0.6% of 320,000 active. AID 2629; in the data active means inhibition mostly above about 10%, no sharp cut-off; inactive means mostly below about 6.7%;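 further: stock transfer was 7.5 nL into about 10 µL; 0% = median of vehicle wells and 100% = median of positive control wells; one replicate is shown; the record names a cut of 25% in any replicate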
Calb FLC: affects C. albicans growth with fluconazole; C. albicans CaCi-2 (fluconazole-resistant clinical isolate) + fluconazole, Alamar Blue growth, 48 h; growth inhibition, % (concentration not given with the values); 0.57% of 300,000 active; AID 1979;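 active means most replicates above 75%; inconclusive means exactly half above 75%; inactive means most below 75%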;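 further: all wells also contain fluconazole at 8 µg/ml as a sub-toxic cotreatment; 0% = median of DMSO wells and 100% = median of geldanamycin control wells; wells of about 8 µL received 7.5 nL stock; the first replicate is given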
T cruzi inh: blocks replication of Trypanosoma cruzi; 1.4% of 300,000 active; inhibition, % (concentration not given with the values); T. cruzi beta-gal in NIH3T3, luminescence, 90 h; AID 1885;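 active means mean inhibition across valid replicates above about 55%, limit read from the data; inconclusive means mean below that limit but half or more replicates reach it; inactive means mean below it, under half of replicates reach it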;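 further: signal also drops with host cell toxicity which is not excluded here; 0% = plate median of DMSO wells and 100% = zero luminescence signal; higher percent means less beta-gal luminescence so fewer parasites; stock transfer was 50 nL into about 50 µL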
B2AR ag: human beta-2 adrenergic receptor agonism by FAP. P07550. Am2.2-beta2AR cells, FAP receptor internalization, flow cytometry; reference of the scale not given here. response, % (concentration not given with the values). 0.43% of 340,000 active. AID 504454;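 active means response above a set limit, near 3 SD of response in nonfluorescent compounds, cut at about 42% in these data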;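 further: stock transfer was 100 nL into about 11 µL; a reference agonist was the positive control; negative values mostly stem from fluorescent compounds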
Target sequence (P07550 whole entry, looked up): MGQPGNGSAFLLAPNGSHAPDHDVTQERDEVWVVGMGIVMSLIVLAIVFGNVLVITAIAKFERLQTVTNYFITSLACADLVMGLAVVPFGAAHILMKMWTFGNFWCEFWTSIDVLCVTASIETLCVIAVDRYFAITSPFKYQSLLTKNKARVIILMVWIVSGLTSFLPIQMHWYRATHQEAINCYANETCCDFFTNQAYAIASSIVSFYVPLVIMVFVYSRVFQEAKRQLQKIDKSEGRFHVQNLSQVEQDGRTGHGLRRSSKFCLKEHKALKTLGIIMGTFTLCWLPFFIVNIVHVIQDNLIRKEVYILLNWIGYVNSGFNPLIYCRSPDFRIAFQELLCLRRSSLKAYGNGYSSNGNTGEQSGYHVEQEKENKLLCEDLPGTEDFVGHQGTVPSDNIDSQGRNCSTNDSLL
rRNA inh HTS: selective bacterial rRNA inhibition in E. coli | E. coli WT GFP vs humanized-ribosome RFP mutants, fluorescence, 24 h; stronger effect = lower value; DMSO median 0, no signal -100 | 1.6% of 350,000 active | AID 720706 | GFP signal change (wild-type ribosome), % (test concentration not listed);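 active means significant combined selectivity score with lowered wild-type GFP, culture density cut under 30%, mutant RFP and density less affected; inactive means any of these conditions unmet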; further: one replicate is shown; some compounds called inactive have numbers as strong as hits
Bfl-1 A1 inh: inhibitors of the anti-apoptotic protein A1, read as caspase activation. caspase activation, % (concentration not given with the values). MEF A1-2A-BIM cells, Caspase-Glo 3/7 luminescence, 3 h; percent of clofoctol response, vehicle zero. AID 2462. 0.066% of 330,000 active;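 active means over half of replicate activation scores above 10%, or exactly half above 10 with the replicate mean above 10; inconclusive means replicate mean below 10 yet half the replicates above 10; inactive means over half of replicates below 10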;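 further: wells of about 30 µL received 50 nL stock; many hits fall short of the cut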
ALR inh: blocks human ALR sulfhydryl oxidase activity. P55789. purified ALR, DTT oxidation, H2O2 HRP-luminol luminescence. inhibition, % (test concentration not listed). 3.8% of 290,000 active;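 active means mean and each replicate at 75% or more; inconclusive means only one of the two met; inactive means neither met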;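 further: stock transfer was 7.5 nL into about 7.5 µL; 0% = neutral wells and 100% = wells with inactivated enzyme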
Target sequence (P55789 whole entry, looked up): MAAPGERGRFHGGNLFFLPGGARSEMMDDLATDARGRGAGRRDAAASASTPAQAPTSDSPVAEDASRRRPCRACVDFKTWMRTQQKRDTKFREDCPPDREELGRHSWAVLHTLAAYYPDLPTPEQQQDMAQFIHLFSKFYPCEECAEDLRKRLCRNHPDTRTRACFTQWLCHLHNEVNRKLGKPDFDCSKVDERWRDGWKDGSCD
Beta apoptosis: beta cell apoptosis inhibition; 0.8% of 300,000 active; INS-1E cytokine-induced death, ATP luminescence, 48 h; percent of positive-control rescue, neutral wells zero; AID 435005; protection from apoptosis, % (test concentration not listed);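 active means all replicates at 75% or more, or half of them and the mean; inconclusive means half reach 75% but not the mean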;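 further: 0% = cytokine-treated negative control wells and 100% = positive control rescue; higher means more ATP so stronger rescue from cytokine killing; wells of about 40 µL received 100 nL stock; the first replicate is given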
rRNA inh HTS OD600: also measured in rRNA inh HTS; calls as there; OD600 change, %; measured here: OD600 growth;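 optical density of the mix in the first replicate; 0 = DMSO median and -100 = no signal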
rRNA inh HTS RFP: recorded beside rRNA inh HTS, whose call it bears; RFP signal change, %; measured here: RFP humanized mutant strains;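 first replicate; 0 = DMSO median and -100 = no signal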
Active calls of the source: *; ? = inconclusive; · = not tested or not shown. An excerpt, so the mix of outcomes need not match the whole.

SMILES	LANA-H2A inh	Calb FLC	T cruzi inh	B2AR ag	rRNA inh HTS	rRNA inh HTS OD600	rRNA inh HTS RFP	Bfl-1 A1 inh	ALR inh	Beta apoptosis
COc1ccccc1C(=O)O/N=C(\N)c1ccccc1Cl	3.1	28	2	3	-15	-14	-2.1	-1.5	2	2
CCCS(=O)(=O)NCc1cn2c(C)csc2n1	1.8	12	6	-1	5	3	-6.6	0.7	-3	-6
CSc1ccc(C2Nc3cccc4cccc(c34)N2)cc1	5.9	1	-5	5	-26	25	-15	0.6	-14	4
CCc1nnc(NC(=O)CSc2nnc(COc3ccccc3)n2Cc2ccccc2)s1	1.7	4	-20	-1	·	·	·	-0.9	20	·
O=C(OC(C(=O)Nc1ccc(Cl)cc1C(F)(F)F)c1ccccc1)C1=COCCO1 (configuration not stated)	·	0	-2	-2	·	·	·	-0.3	·	-7
Cn1c(Sc2ccccc2Cl)c(C=O)c2ccccc21	5.4	-1	·	-2	·	·	·	0.3	4	-3
CCCCC1CCC(C(=O)Nc2ccc(N3CCOCC3)cc2N2CCOCC2)CC1 (configuration not stated)	·	·	·	2	18	18	8.1	1.4	2	8
Cc1ccc(/C=N/NC(=O)c2nnn(-c3nonc3N)c2-c2cccs2)cc1	-1.5	-4	29	10	5	16	7.2	-0.4	-1	4
CCn1c(CNC(=O)c2ccc(Cl)cc2)nnc1SCC(=O)N1CCOCC1	3.6	-18	-16	4	0	13	-1.4	0.1	·	-5
Cc1nc2nc(C)c(CCC(=O)N3CCN(c4ccccc4)CC3)c(C)n2n1	-4.7	-17	0	-1	·	·	·	0.9	93*	0
CC(=O)c1ccccc1OCCOc1ncnc2sccc12	-1.9	30	-3	-2	11	1	6.7	-0.2	-1	4
Cc1ccc(NC(=O)Nc2nnc(-c3ccccc3)o2)cc1	2.2	-9	-13	4	17	16	1.2	1.1	-18	-1
CCOc1ccc(OCCn2c(SCC(=O)O)nc3ccccc32)cc1	2.5	5	-2	9	-26	-35	-3.8	0.8	17	·
S=C(NCCCn1ccnc1)NC1CCCCC1	-1.7	-13	-7	1	13	9	-3.7	-1.3	5	4
Cc1cc(NC(=O)CSc2nc3ccccc3[nH]2)no1	-0.6	-5	-15	-3	·	·	·	1.2	-4	-6
O=c1c2c(-c3ccccc3)csc2nc2c3ccccc3c(NCCN3CCOCC3)nn12	·	6	38	107*	-56	-80	-25	·	·	·
Cc1ccccc1CSCC(=O)NC(=O)NC(C)(C)C	-0.2	0	12	4	·	·	·	0.3	-23	6
COCc1cc(C)nc(SCC(=O)Nc2ccccc2N2CCOCC2)c1C#N	4.0	1	40	-4	-9	-21	-1.4	-1.2	2	-6
Cc1ccc(Cn2ccc(NC(=O)c3c(-c4ccccc4Cl)noc3C)n2)cc1	0.8	-13	4	5	·	·	·	-0.2	-30	-5
CCCCCCSc1ccc(-c2nc3ccc(Cl)cn3c2NC2CCCCC2)cc1	1.8	·	·	20	1	2	-0.3	1.3	-1	0
O=C(NCc1ccc2c(c1)OCO2)c1ccc(=O)[nH]c1	·	21	-21	-1	·	·	·	0.3	·	-7
O=C(O)Cn1nc(-c2ccccc2)c2ccccc2c1=O	-2.2	-6	-9	-4	·	·	·	0.8	-3	0
Cc1ccc(NC(=O)Cc2nc(COC(=O)C(C)NS(=O)(=O)c3ccc(C)cc3)cs2)cc1 (configuration not stated)	-3.4	·	·	2	·	·	·	1.7	14	-2
O=C(CSc1nnc(-c2ccco2)n1-c1ccccc1)N1CCOCC1	4.9	4	-9	2	·	·	·	-0.3	-18	1
CCNC(=S)N=Nc1c(O)[nH]c2ccc([N+](=O)[O-])cc12	-1.2	6	-5	9	-7	-4	-3.4	-0.6	-15	11

Overlap with the part before: 6 entries, then new ones.
SMILES	LANA-H2A inh	Calb FLC	T cruzi inh	B2AR ag	rRNA inh HTS	rRNA inh HTS OD600	rRNA inh HTS RFP	Bfl-1 A1 inh	ALR inh	Beta apoptosis
CCCCCCSc1ccc(-c2nc3ccc(Cl)cn3c2NC2CCCCC2)cc1	1.8	·	·	20	1	2	-0.3	1.3	-1	0
O=C(NCc1ccc2c(c1)OCO2)c1ccc(=O)[nH]c1	·	21	-21	-1	·	·	·	0.3	·	-7
O=C(O)Cn1nc(-c2ccccc2)c2ccccc2c1=O	-2.2	-6	-9	-4	·	·	·	0.8	-3	0
Cc1ccc(NC(=O)Cc2nc(COC(=O)C(C)NS(=O)(=O)c3ccc(C)cc3)cs2)cc1 (configuration not stated)	-3.4	·	·	2	·	·	·	1.7	14	-2
O=C(CSc1nnc(-c2ccco2)n1-c1ccccc1)N1CCOCC1	4.9	4	-9	2	·	·	·	-0.3	-18	1
CCNC(=S)N=Nc1c(O)[nH]c2ccc([N+](=O)[O-])cc12	-1.2	6	-5	9	-7	-4	-3.4	-0.6	-15	11
Cc1ccc(/C=N/NC(=O)c2nn(C)cc2Cl)cc1	-9.1	-14	-9	-3	·	·	·	-10	0	7
CCCCCC(=O)Nc1ccc(C(=O)N/N=C/c2ccc([N+](=O)[O-])cc2)cc1	3.5	-1	0	-11	28	8	2.4	0.5	-2	48
CCOC(=O)c1c(NC(=S)Nc2ccccc2)sc2c1CC(C)(C)SC2	5.5	-8	-6	8	-1	1	-2.2	0.3	-6	5
CC(C)c1ccc(C(=O)COC(=O)C(O)c2ccccc2)cc1 (configuration not stated)	5.8	·	·	-1	-13	-1	5.4	0.8	-5	-2
CCOC(=O)c1nc(N)c(C(=O)OCC)[nH]1	-3.8	1	3	-2	·	·	·	1.0	9	·
CC(=O)Oc1ccc2c(=O)c(Oc3ccccc3[N+](=O)[O-])coc2c1	-4.4	-6	-19	-1	·	·	·	0.2	17	-3
CCOC(=O)N1CCN(CC(=O)Nc2cc3c(cc2C(C)=O)OCO3)CC1	7.8	1	16	-3	17	15	-0.5	-0.2	-2	-9
Cc1ccc(-n2c3c(c(O)c(-c4ccccc4)c2=O)C(=O)CC(C)(C)C3)cc1	-2.0	7	14	-13	·	·	·	0.0	3	-7
Cc1ccc(S(=O)(=O)N(C)CCCC(=O)Nc2ccc(C)cc2C)cc1	2.1	17	-9	3	-4	1	3.6	-0.4	-13	-3
O=C(COc1ccc(-c2nnco2)cc1)Nc1c(Cl)cccc1C(F)(F)F	3.9	-1	-7	-3	10	9	1.4	0.7	·	·
COc1ccc(-c2cnc3c(-c4ccc(F)cc4)cnn3c2N)cc1	2.8	-10	-21	9	6	10	1.4	-0.4	·	-2
Cc1cc(NC2CCCCC2)nc2ccccc12	1.1	-41	31	4	-12	-19	-8.2	-1.0	-2	17
COCCN(C(=O)CCC(=O)Nc1nccs1)C(C(=O)NCCC(C)C)c1ccc(OC)cc1 (configuration not stated)	1.5	-1	11	-1	-1	3	3.4	0.4	-6	-11
O=S1(=O)N=C2CCCCCN2C(c2ccc(Br)cc2)N1 (configuration not stated)	1.8	-14	4	4	21	18	-7.7	0.4	-6	1
O=C(NCCCc1ccccc1)c1ccc(Br)o1	-2.3	?	4	-4	·	·	·	-0.3	-2	-6
Cc1cc(C)n(C/C=C/Cn2nc(C)cc2C)n1	15	17	-8	2	3	2	-4.8	-1.0	-2	3
O=C(c1ccccc1)N1CCN(CC(O)COCC2CC=CCC2)CC1 (configuration not stated)	-0.8	0	-8	-7	·	·	·	0.5	-13	-1
Cc1cc(C(=O)NCc2ccccc2Br)no1	0.4	9	7	-2	5	7	-5.1	0.5	0	-1
COc1ccccc1NC(=O)CSc1nnnn1Cc1ccccc1	-2.6	0	12	4	-29*	-20*	4.6*	0.3	-1	3
N#CC1=C(N)S[C@@H](C(=O)c2ccc(F)cc2)[C@@H]1c1cccs1	2.0	-8	-17	-3	·	·	·	0.2	·	0
C[C@H](CO)N1C[C@H](C)[C@@H](CN(C)S(=O)(=O)c2cccs2)Oc2c(NS(=O)(=O)c3cn(C)cn3)cccc2C1=O	-7.9	·	·	1	2	10	-1.5	-0.2	0	-11
O=S(=O)(c1ccc2ccccc2c1)N1CCN(C(=S)Nc2ccc(F)cc2)CC1	5.2	-9	-2	-2	·	·	·	-0.2	·	-5
C=CCON/C(CCC)=C1\C(=O)C(C(=O)OC)C(C)(C)CC1=NC (configuration not stated)	-3.1	-13	-2	4	7	-10	-3.5	1.2	-3	·
COc1ccc(C(=O)N2CC(=O)Nc3ccc(F)cc3C2c2ccccc2)cc1 (configuration not stated)	0.3	-11	-8	-19	2	-4	3.7	1.2	2	0
Cc1cc(C)n(CC(O)CN(c2ccccc2)S(=O)(=O)c2ccc3ccccc3c2)n1 (configuration not stated)	4.0	12	19	-29	-18	-17	0.0	0.0	-6	-14
COc1cccc(N(CC(=O)N/N=C(\C)c2cccs2)S(C)(=O)=O)c1	-0.9	-2	-2	-4	·	·	·	-0.4	0	-3
CC1CCN(CCC(=O)Nc2ccc(F)c(F)c2)CC1	-2.5	-16	-17	-12	5	11	-1.0	-0.8	0	-7
Clc1ccc(Nc2ccc(Cl)nn2)cc1	2.3	-2	24	-9	8	-7	-4.3	-1.5	-3	·
COc1cc(O)c2c(=O)c(-c3ccc(O[C@@H]4O[C@H](CO)[C@@H](O)[C@H](O)[C@H]4O)cc3)coc2c1	1.4	4	-3	-1	6	5	1.6	-11	-5	-3

Five compounds picked at random from those above:
SMILES	LANA-H2A inh	Calb FLC	T cruzi inh	B2AR ag	rRNA inh HTS	rRNA inh HTS OD600	rRNA inh HTS RFP	Bfl-1 A1 inh	ALR inh	Beta apoptosis
C=CCON/C(CCC)=C1\C(=O)C(C(=O)OC)C(C)(C)CC1=NC (configuration not stated)	-3.1	-13	-2	4	7	-10	-3.5	1.2	-3	·
CC(C)c1ccc(C(=O)COC(=O)C(O)c2ccccc2)cc1 (configuration not stated)	5.8	·	·	-1	-13	-1	5.4	0.8	-5	-2
CC(=O)Oc1ccc2c(=O)c(Oc3ccccc3[N+](=O)[O-])coc2c1	-4.4	-6	-19	-1	·	·	·	0.2	17	-3
Cc1cc(C)n(C/C=C/Cn2nc(C)cc2C)n1	15	17	-8	2	3	2	-4.8	-1.0	-2	3
Cc1ccc(-n2c3c(c(O)c(-c4ccccc4)c2=O)C(=O)CC(C)(C)C3)cc1	-2.0	7	14	-13	·	·	·	0.0	3	-7
